BJeLR viability – MLPCN primary cell-based screen for lethality selective to Ras in HRASV12 cells; BJeLR (HRASV12) viability, CellTiter-Glo ATP luminescence, 48 h; reference of the scale not given here; inhibition, % (no concentration beside the values); AID 1554, 2009; hit rate 0.17% among 300,000;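 active means replicate mean above 50%; inconclusive means above 50% but judged a plate artefact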;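 further: 50 nL library stock added to about 25 µL; numbers are from one replicate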
Autofluor counter – compound fluorescence in toxin protease inhibitor counterscreen; compound autofluorescence counterscreen, microsphere flow cytometry; hits give high values; fluorescence intensity (no concentration beside the values); hit rate 3.1% among 360,000; AID 624483;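 active means at least 3 SD above the mean of all compounds, about 16000 in these data; inconclusive means too few beads counted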;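 further: 100 nL of 1 mM stock went into each well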
PrP 5UTR inh – inhibition of PrP 5' UTR reporter expression. cell-based PrP 5' UTR mRNA reporter, plate reader. inhibition, % (concentration not given with the values). hit rate 0.35% among 340,000. AID 488862, 2010;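 active means every replicate at 50% or more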;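 further: 0 = median of the neutral control wells; tested in H4 reporter cells; numbers are from one replicate; inactives centre near -14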
RN4220 kill – growth inhibition of S. aureus RN4220, primary screen, OD600. inhibition, % (test concentration not listed). AID 1259311, 2017. hit rate 0.33% among 330,000. 16 h;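 active means z-score of -3 or lower and OD600 up to 0.18 on both plates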;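 further: plate controls were untreated cells for no effect and reference antibiotic for full effect; stock transfer was 100 nL into about 80 µL; one replicate is shown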
Sa ugtP lethal – growth inhibition of ugtP-null S. aureus, primary screen, RN4220 ugtP deletion, OD600 | 16 h; some inactives read as strong as hits | growth inhibition, % (concentration not given with the values) | hit rate 0.54% among 330,000;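 active means z-score under -3 and OD600 up to 0.15 on both plates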;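 further: plate controls were untreated wells for no effect and antibiotic for full effect; wells of about 80 µL received 100 nL stock; the first replicate is given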
Mtb hypoxia rep – PubChem AID 1159583; M. tuberculosis hypoxia-regulated fluorescent reporter, fluorescence; fluorescence inhibition, % (concentration not given with the values); hit rate 0.1% among 300,000;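 active means 35 to 45% if threefold the growth effect, above 45% if 1.5-fold the growth effect; inactive means the rest, general growth blockers included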;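 further: wells of about 50 µL received 100 nL stock; 0% = vehicle wells and 100% = reference inhibitor wells; whole bacteria with a GFP reporter of the hypoxia response; strong numbers were not always called active; many hits fall short of the cut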
Mtb hypoxia rep growth – recorded beside Mtb hypoxia rep, whose call it bears; growth inhibition, %; measured here: M. tuberculosis growth (absorbance);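 0% = vehicle and 100% = reference antibiotic; read after six days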
Active calls of the source: *; ? = inconclusive; . = not tested or not shown.

No.	SMILES	BJeLR viability	Autofluor counter	PrP 5UTR inh	RN4220 kill	Sa ugtP lethal	Mtb hypoxia rep	Mtb hypoxia rep growth
1	Cc1cc(NS(=O)(=O)c2ccc(NC(=O)c3cnc(Cl)c(Cl)c3)cc2)nc(C)n1	.	3547	4	2.9	3	7	4
2	Cn1cc(CCC(=O)NCc2ccc(Cl)cc2)c2ccccc21	-4	4024	-6	4.4	8	-7	-2
3	CSc1ncccc1C(=O)OCC(=O)N(CC(C)C)C1CCS(=O)(=O)C1 (configuration not stated)	17	3996	-29	7.3	-5	16	8
4	CCCCNC(=O)Nc1c(C(=O)OCC)[nH]c2ccccc12	1	4599	-12	3.3	-3	.	.
5	CCOC(=O)N1CCC(NC(=O)c2cc(S(=O)(=O)N(CC)CC)ccc2F)CC1	3	7848	-30	0.3	3	-1	4
6	Cc1ccc(SCn2nnc3ccccc3c2=O)c(C)c1	-1	3671	-60	8.0	14	1	3
7	CCOc1cc(/C=C/c2cc(C(=O)O)c3ccccc3n2)ccc1O	0	2354	7	0.2	6	8	4
8	CCOC(=O)c1c(SC)n(-c2ccccc2)c(=S)n(-c2ccccc2)c1=O	-4	3730	-6	2.3	1	3	-3
9	O=C(CSc1ccccc1F)Nc1ccc2c(c1)OCO2	.	4127	-57	3.0	2	6	8
10	C=CCN(C(=O)CCC(=O)Nc1cc(C)on1)C(C(=O)NC1CCCC1)c1ccc(OC)cc1OC (configuration not stated)	-5	3297	-16	-0.5	7	16	12
11	Cc1n[nH]c(=O)c2ccccc12	0	4153	-7	-0.1	2	4	6
12	CC(NC(=O)CSc1nc2ccccc2c(=O)n1CCCO)c1ccccc1 (configuration not stated)	-6	8144	-24	1.3	-4	0	15
13	Cc1ccc(/C=C2/SC(=S)N(CCC(=O)N3CCN(C)CC3)C2=O)cc1	-9	3996	-23	4.3	-2	-3	2
14	O=C(N/N=C/c1ccc([N+](=O)[O-])o1)c1ccccc1NS(=O)(=O)c1cccs1	6	?	-6	.	.	.	.
15	CC(C)C(NC(=O)C1CCCCC1)C(=O)Nc1ccncc1 (configuration not stated)	-2	4199	-17	1.3	15	.	.
16	CN(Cc1ccc(F)cc1)C(=O)c1ccc(NS(=O)(=O)c2ccccc2)cc1	13	4798	-19	2.9	8	-4	1
17	CC(=O)c1cccc(NC(=O)N2CCC(NC(=O)c3ccco3)CC2)c1	-1	5220	-26	-4.0	-2	-7	2
18	CCC(=O)OC1(C)C(=O)C=C2C=C(c3ccc(C#N)cc3)OC=C2C1=O (configuration not stated)	-4	3304	-8	5.3	2	18	5
19	c1ccc(-c2noc(-c3ccc4c(c3)OCO4)n2)nc1	92*	10205	86*	1.2	4	1	4
20	CCOc1ccccc1NC(=O)CSc1nnc(-c2cccnc2)o1	-3	3584	-20	2.7	13	-7	2
21	COc1ccc(CCNC(=O)Cc2cccs2)cc1	5	2181	5	1.8	3	13	11
22	NNc1nnc(-c2ccccc2)c(-c2ccccc2)n1	4	6457	-17	7.0	16	2	-4
23	COc1ccc(CC(=O)N(Cc2cc3cc(OC)ccc3[nH]c2=O)C(C)C)cc1	8	6071	-13	1.2	-1	.	.
24	Brc1cc(Br)c2nc3c(cc2c1)CCC3	-17	3537	-12	11	-3	54*	34*
25	CCc1ccc(OCc2n[nH]c(=S)n2C(C)CCCC(C)C)cc1 (configuration not stated)	7	4582	-55	2.3	-3	-4	8
26	Cn1c2ccccc2c2cnn(CC(=O)O)c(=O)c21	2	2569	0	0.7	-2	2	10
27	CCN(C(=O)C(C)Sc1ccc(S(=O)(=O)N2CCOCC2)cn1)c1ccccc1 (configuration not stated)	.	3675	-12	1.9	-2	9	3
28	CSc1cccc(NC(=S)N2CCC(N(C)C3CCCCC3C)CC2)c1 (configuration not stated)	-2	3872	12	2.7	7	-5	-10
29	O=C(Nc1ccccc1)c1cnc[nH]1	-3	1950	-33	3.5	10	.	.
30	COc1ccc(NC(C)=O)cc1NS(=O)(=O)c1ccc2c(c1)OCCO2	.	3457	-10	-1.3	-1	1	9
31	N=c1n(Cc2ccc(Cl)cc2)c2ccccc2n1CC(O)COc1ccccc1 (configuration not stated)	10	2800	-11	0.6	-2	-4	9
32	COc1ccc(NC(=O)CSc2ccc(C)cc2)cc1	-1	4525	-53	-3.9	-1	.	.

Limited to BJeLR viability, Mtb hypoxia rep and Autofluor counter, for 3 of the compounds above:
no. | Molecule | BJeLR viability | Mtb hypoxia rep | Autofluor counter
25 | CCc1ccc(OCc2n[nH]c(=S)n2C(C)CCCC(C)C)cc1 (configuration not stated) | 7 | -4 | 4582
30 | COc1ccc(NC(C)=O)cc1NS(=O)(=O)c1ccc2c(c1)OCCO2 | . | 1 | 3457
29 | O=C(Nc1ccccc1)c1cnc[nH]1 | -3 | . | 1950

Continued.
No.	SMILES	BJeLR viability	Autofluor counter	PrP 5UTR inh	RN4220 kill	Sa ugtP lethal	Mtb hypoxia rep	Mtb hypoxia rep growth
33	CCCCOc1ccc(C(=O)Nc2ccc(OCC(=O)N3CCOCC3)cc2)cc1	-2	5388	-36	4.2	-3	7	9
34	CCCCC(=O)Nc1cc(C(=O)NCCc2ccccc2)ccc1Cl	0	7403	-94	4.8	6	11	3
35	CCc1ccccc1NC(=O)c1cc(C2CC2)on1	-1	5570	-8	6.8	9	4	5
36	N#CC1=C(N)Oc2cc(O)ccc2C1c1cccnc1 (configuration not stated)	6	2206	-35	-0.2	1	-7	-1
37	CC(=O)c1c(N2CCN(CCO)CC2)nc(=S)n(-c2ccccc2)c1C	-2	4603	-4	4.3	2	7	-2
38	COC(=O)C1=C(c2cc3ccccc3o2)CC2CCC1N2C(=O)NC1CCCCC1 (configuration not stated)	.	.	.	-7.7	2	1	16
39	Cc1nc(CS(=O)(=O)c2ccc(Cl)cc2)cc(Sc2ccc(Cl)cc2)n1	4	2558	-6	-1.3	10	.	.
40	Cc1cc(C(=O)NCc2ccccc2Cl)c2ccccc2n1	-3	3843	1	6.1	1	-1	4
41	CCC(C)C1NC(=O)c2cc([N+](=O)[O-])cc(I)c2SCC(C(N)=O)NC(=O)C(CCCCN)NC1=O (configuration not stated)	.	.	.	2.7	0	22	22
42	CCOC(=O)NN=C1CN(S(=O)(=O)c2ccc(C)cc2)C1	-10	5393	-11	-0.1	13	-6	-2
43	Cc1ccc(-n2cc(CN(C)Cc3ncc[nH]3)c(-c3cccc(C)c3)n2)cc1	-2	5006	-8	-8.1	7	0	17
44	CN1C(C(=O)NCCc2cccs2)CC2Cn3c(nc4cc(Cl)c(Cl)cc43)C21 (configuration not stated)	-2	3661	-16	2.1	-6	14	9
45	COc1ccc(/C=N/NC(=O)c2cccc(COCC(F)(F)C(F)F)c2)cc1	-10	9135	-19	.	.	.	.
46	CCCOc1ccccc1NC(=O)CC1Nc2ccccc2NC1=O (configuration not stated)	.	21938*	-24	1.8	-14	1	1
47	COc1ccc(CCn2cnc(=O)c(C#N)c2C)cc1OC	1	2572	-9	4.9	2	5	0
48	Cc1ccc(C)c(N2CCN(C(=O)CCc3nc(-c4cccc(Br)c4)no3)CC2)c1	.	3603	-13	7.4	1	-6	5
49	Cc1c(NC(=O)COC(=O)c2cccn2C)c(=O)n(-c2ccccc2)n1C	.	3230	-31	5.3	-2	19	13
50	Cc1ccc(OCC(=O)Nc2ccncc2)cc1	0	3377	0	3.4	3	3	0
51	CCCCc1nn(-c2cc(Cl)ccc2OC)c2c1C(=O)CC(C)(C)C2	5	6029	-4	-4.6	8	8	10
52	O=C(NCC(=O)N(Cc1cccs1)C(C(=O)NC1CCCC1)c1cccnc1)c1ccco1 (configuration not stated)	1	3836	-6	0.3	6	.	.
53	CCOC(=S)SCC(=O)N1CCc2ccccc2C1C1C(=O)CC(C)(C)CC1=O (configuration not stated)	-3	2581	-9	0.3	20	13	5
54	CC(=O)c1ccc(OCC(=O)N(C)CC(=O)Nc2ccc(N3CCOCC3)cc2)cc1	.	.	-12	3.1	4	-2	3
55	CN(C)c1ccc(S(=O)(=O)N2CCCCC2)cc1NC(=O)CN1C(=O)NC2(CCCC2)C1=O	0	5075	-6	1.2	6	1	2
56	CCC(=O)Nc1nnc(SCCN2CCOCC2)s1	-5	2198	-28	3.4	1	8	1
57	CCC(=O)N1CCCc2cc(S(=O)(=O)N3CCCc4ccccc43)ccc21	0	3592	8	11	7	.	.
58	CC1CCCCC1NC(=O)C1CC=CCC1C(=O)O (configuration not stated)	-4	2088	-10	0.8	7	-2	4
59	Cc1ccccc1COc1ccc(/C=N/NC(=O)c2nnn(-c3nonc3N)c2CN2CCC(C)CC2)cc1	-5	5908	-16	.	.	.	.
60	COc1cc(C)c(-c2[nH]ncc2-c2csc(C)n2)c(O)c1	-4	2550	-2	4.6	14	10	4
61	CCCCN(C)C(=O)c1nc2ccccn2c1CN1CCN(c2ccccn2)CC1	-7	4131	-24	-0.5	1	7	5
62	CN(CC(=O)Nc1ccc(N2CCOCC2)cc1)C(=O)CSc1ccccc1F	.	3739	12	3.7	6	-5	-2
63	O=C(C1CCCO1)N1CCN(Cc2c(O)ccc3ccccc23)CC1 (configuration not stated)	-2	4060	-26	0.3	9	-6	-1
64	CCOc1ccc(N(CC(=O)NC2CCCCC2)S(=O)(=O)c2c(C)noc2C)cc1	-2	5172	-13	1.9	6	.	.
65	COc1cccc(-c2ccc(NC(=O)C3CCCN(Cc4nccn4C)C3)cc2)c1 (configuration not stated)	8	5514	-9	-1.3	1	0	16
66	COc1cccc(OC(C)c2ccnc3nc(N=CN(C)C)nn23)c1 (configuration not stated)	.	.	.	3.4	-2	6	-10
67	CN(Cc1nccn1C)C(=O)c1ccc(OC2CCN(CCc3ccccc3)CC2)cc1	6	5673	-19	0.5	8	1	3
68	COc1ccc(C(CNC(=O)C(CC(C)C)NS(=O)(=O)c2ccc(C)cc2)N2CCOCC2)cc1 (configuration not stated)	-7	6058	-10	2.2	3	3	2
69	CCCc1nnc(NC(=O)CNc2ccc(F)cc2)s1	-1	3205	-22	1.8	-8	3	7
70	O=C1NCC(Cc2cccc3ccccc23)N(CC2CCCCC2)C1=O (configuration not stated)	.	.	.	9.7	4	10	4
71	COc1ccc(-c2cc(C(=O)NN)[nH]n2)cc1OC	-9	4036	-13	0.6	6	13	6
72	Cc1cc(NC(=O)CCCC(=O)N(CC(=O)NCCc2ccccc2)Cc2ccc(F)cc2)no1	-6	20415*	-6	1.5	-5	8	5
73	Cn1c(O)c(/C=C2\C=Nc3ccccc32)sc1=Nc1ccc(C(=O)O)cc1	-4	4282	-15	10	9	-7	5
74	NC(=O)N/N=C/c1c(Sc2nnnn2-c2ccccc2)nc2ccccn2c1=O	10	5220	-27	.	.	.	.
75	O=S(=O)(Nc1ccccn1)c1ccc(C(F)(F)F)cc1Cl	3	5494	-21	4.2	7	9	-2
76	O=C(Nc1ccc(S(=O)(=O)N2CCOCC2)cc1)c1ccc(Br)o1	-5	4221	-1	5.1	2	3	11
77	Cc1ccc(-n2nc3c(=O)n(CC(=O)NCCc4ccccc4C)nc(C)c3c2C)cc1	-6	4557	18	1.8	8	8	-1
78	COc1ccc(OC)c(-n2c(O)c(C=NCc3ccc4c(c3)OCO4)c(=O)[nH]c2=O)c1	1	16727*	-42	1.7	4	3	0
79	O=C(COc1ccccc1[N+](=O)[O-])NN=Cc1ccncc1	.	.	.	1.5	1	3	-1
80	O=C(CSC1=NCCN1)Nc1cccc(C(F)(F)F)c1	-2	4763	-5	.	.	.	.
81	O=C(NCCc1ccccc1)c1cnc2ccccn2c1=O	2	6607	-59	3.4	-6	-13	-4
82	COc1ccc(Cc2n[nH]c(=S)n2N)cc1OC	13	4247	0	-1.4	3	12	4
83	CCCN(CC(=O)Nc1ccccc1C)C(=O)C1CC(=O)N(Cc2ccccc2)C1 (configuration not stated)	1	.	-13	4.3	9	6	-3
84	Cc1ccc(NN=C2CCS(=O)(=O)c3sccc32)cc1	.	.	.	1.4	9	4	11
85	CCn1c(SCC(=O)NN=Cc2c[nH]c3ccccc23)nnc1-c1ccc(Cl)cc1	.	.	.	-0.5	-3	15	5
86	COc1ccc(OC)c(NC(=O)c2ccc(CN3CCc4ccccc4C3)cc2)c1	-13	3889	0	0.3	16	0	-5
